High-throughput results as filed in PubChem.
BJeLR lethal: kills HRASV12-expressing BJeLR cells; BJeLR (HRASV12) viability, CellTiter-Glo ATP luminescence, 48 h; reference of the scale not given here; inhibition, % (concentration not given with the values); actives 0.17% (n = 300,000); AID 1554;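 active = replicate mean above 50%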;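 note: 50 nL library stock added to about 25 µL; numbers are from one replicate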
Bead autofluor: compound fluorescence in toxin protease inhibitor counterscreen; compound autofluorescence counterscreen, microsphere flow cytometry; stronger effect = higher value; fluorescence intensity (concentration not given with the values); actives 3.1% (n = 360,000); AID 624483;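 active = at least 3 SD above the mean of all compounds, about 16000 in these data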;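 note: 100 nL of 1 mM stock went into each well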
ugtP null kill: kills S. aureus RN4220 lacking UgtP. S. aureus RN4220 ugtP deletion, OD600 growth, 16 h; some inactives read as strong as hits. growth inhibition, % (no concentration beside the values). actives 0.54% (n = 330,000). AID 1259309;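 active = z-score under -3 and OD600 up to 0.15 on both plates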;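 note: plate controls were untreated wells for no effect and antibiotic for full effect; wells of about 80 µL received 100 nL stock; the first replicate is given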
PrP 5UTR inh: suppresses PrP 5' UTR mRNA reporter expression | cell-based PrP 5' UTR mRNA reporter, plate reader | inhibition, % (concentration not given with the values) | actives 0.35% (n = 340,000) | AID 488862;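 active = every replicate at 50% or more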;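 note: 0 = median of the neutral control wells; tested in H4 reporter cells; numbers are from one replicate; inactives centre near -14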
RN4220 kill: kills Staphylococcus aureus RN4220 | S. aureus RN4220 growth, OD600, 16 h | inhibition, % (test concentration not listed) | actives 0.33% (n = 330,000) | AID 1259311;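 active = z-score of -3 or lower and OD600 up to 0.18 on both plates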;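 note: plate controls were untreated cells for no effect and reference antibiotic for full effect; stock transfer was 100 nL into about 80 µL; one replicate is shown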
Mtb hypoxia rep: inhibitors of hypoxia-regulated fluorescent reporter in Mycobacterium tuberculosis; fluorescence inhibition, % (no concentration beside the values); actives 0.1% (n = 300,000); M. tuberculosis hypoxia-regulated fluorescent reporter, fluorescence;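 active = 35 to 45% if threefold the growth effect, above 45% if 1.5-fold the growth effect; inactive = the rest, general growth blockers included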;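 note: wells of about 50 µL received 100 nL stock; 0% = vehicle wells and 100% = reference inhibitor wells; whole bacteria with a GFP reporter of the hypoxia response; strong numbers were not always called active; many hits fall short of the cut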
Mtb hypoxia rep growth: second read-out of Mtb hypoxia rep, no call of its own (marks repeat the call); growth inhibition, %; measured here: M. tuberculosis growth (absorbance);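 0% = vehicle and 100% = reference antibiotic; read after six days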
* hit, by the source's call; nt = not tested or not shown.

SMILES | BJeLR lethal | Bead autofluor | ugtP null kill | PrP 5UTR inh | RN4220 kill | Mtb hypoxia rep | Mtb hypoxia rep growth
COc1cc(NC(=S)N2CCN(S(=O)(=O)c3ccccc3)CC2)cc(OC)c1 | nt | 5411 | 3 | -2 | 0.7 | 3 | -1
C=CCn1c(SCC(=C)C)nc2c1c(=O)[nH]c(=O)n2C | -2 | 5478 | 8 | -23 | 2.5 | 4 | 6
NNC(=O)C12CC3CC(C1)CC(n1ncnn1)(C3)C2 | -19 | 2425 | 10 | -12 | 7.8 | 12 | 3
COc1ccccc1N(O)C1CC(=O)N(c2ccc(F)cc2)C1=O (stereo not given) | -2 | 3970 | -1 | -11 | -0.7 | 16 | 23
CCOC(=O)c1nn(-c2ccccc2C)c2nc(CC(C)C)c(C#N)c(=O)n12 | 4 | 8735 | 3 | -18 | 1.9 | 6 | 8
CC(=O)c1ccc(N2CCN(C(=O)C3CCCN(c4ncnc5c4nc4n5CCCCC4)C3)CC2)cc1 (stereo not given) | 4 | 4352 | 4 | 0 | 6.0 | 5 | 8
CCCCN(C(=O)/C=C/c1ccco1)c1c(N)n(CCC)c(=O)[nH]c1=O | 7 | 4543 | 5 | -45 | 0.7 | 8 | 2
Cc1cc(NCCc2ccccc2F)n2ncnc2n1 | 7 | 2746 | -2 | -8 | -1.8 | -10 | 8
CCCCN(CCCC)S(=O)(=O)c1c(C)[nH]c(=O)[nH]c1=O | -1 | 4284 | -4 | -30 | 4.0 | 0 | 4
NC(=O)CSc1ncc(-c2ccccc2)[nH]1 | 3 | 8656 | 6 | -20 | 5.2 | 6 | 3
O=C1CCc2cc(S(=O)(=O)NC(C(=O)N3CCN(c4ccccn4)CC3)c3ccccc3)ccc2N1 (stereo not given) | -9 | 4463 | 7 | -8 | -1.5 | 6 | 6
CC(C)NC1=C(Cl)C(=O)c2ccccc2C1=O | 3 | 6682 | 64 | -44 | 85 | -3 | 2
O=C(c1ccc(Cl)cc1)N1CCN(c2ccc([N+](=O)[O-])c(NCc3cccnc3)c2)CC1 | 0 | 2509 | -1 | -7 | -8.7 | nt | nt
CCN(CC)c1nc2c(C)cccn2c(=O)c1C=C1C(=O)NC(=O)NC1=O | 2 | 3451 | -2 | -26 | 4.3 | 3 | 10
CCOC(=O)c1c(CN2CCOCC2)n(-c2ccccc2)c2cc(Br)c(O)c(CN(C)C)c12 | 2 | 2339 | -1 | -9 | -8.5 | 7 | 1
CN(C)NC(=S)Nc1ccc2nc(-c3ccccn3)c(-c3ccccn3)nc2c1 | 3 | 3274 | 5 | -12 | 1.6 | 2 | 4
COc1ccccc1NC(=O)C(=O)c1cn(CC(=O)N2CCOCC2)c2ccccc12 | 4 | 5295 | -4 | -46 | 0.3 | -11 | -8
CCCNC(=O)c1[nH]c(C)c(C(C)=O)c1C | 4 | 3631 | 1 | -23 | 5.1 | nt | nt
Cc1nc(SCc2ccc(O)c([N+](=O)[O-])c2)n[nH]1 | 0 | 2441 | nt | -44 | nt | nt | nt
NC(=S)N/N=C/c1ccc(/C=N/NC(N)=S)cc1 | -13 | 6217 | nt | -18 | nt | nt | nt
Cc1noc(C)c1NC(=O)N(C)C[C@H]1Oc2ccc(NC(=O)NC(C)C)cc2C(=O)N([C@H](C)CO)C[C@H]1C | nt | 2830 | 15 | -1 | 21 | 5 | 1
COC(=O)CCCC(=O)OC | nt | 5735 | 9 | -16 | 2.9 | nt | nt
CCC(=O)N1CCc2cc(S(=O)(=O)N3CCCC3)ccc21 | 1 | 5471 | 0 | -23 | 2.3 | 9 | 4
CC(C)N1CN(c2ccccc2)C(=S)N(c2ccccc2)C1 | 6 | 3918 | 8 | -22 | 5.2 | 8 | 13
Cc1ccc(NC(=O)CSc2nc3ccccc3nc2N2CCOCC2)cc1 | -15 | 5413 | 5 | -15 | 5.8 | 5 | 10
Cc1ccc(-c2n[nH]c3c2CCC3)cc1 | 1 | 3678 | -4 | -28 | 0.2 | nt | nt
Cc1noc(C)c1NC(=O)N(C)C[C@H]1Oc2c(NC(=O)Nc3ccc(C(F)(F)F)cc3)cccc2C(=O)N([C@H](C)CO)C[C@@H]1C | nt | 2993 | 0 | -16 | -7.2 | 5 | 9
CCOC(=O)C1=CN(Cc2cccc(-c3ccc(Cl)nc3)c2)S(=O)(=O)N(C)C1C (stereo not given) | nt | 3548 | 11 | -30 | -4.7 | -1 | 5
CCCNC(=O)C1=C(C)C(=O)OC12CCC(C)CC2 (stereo not given) | -2 | 4743 | -3 | 8 | -16 | 2 | 0
CC1CCCC(C)N1CCCNC(=O)CCn1c(=O)c2cccn2c2cccnc21 (stereo not given) | 7 | 5501 | 5 | -24 | -0.3 | 9 | 1
COc1ccc(CCNC(=O)c2ccc3nc(N4CCCCC4)sc3c2)cc1OC | 10 | 5765 | 13 | -28 | 8.8 | -7 | 8
CN(C(=O)CN1CCN(c2cnn(-c3ccccc3)c(=O)c2Cl)CC1)C1CCS(=O)(=O)C1 (stereo not given) | nt | 3307 | 6 | -17 | 3.1 | -3 | 6
CCCc1cnc(N2CCN(C(=O)c3c(-c4ccccc4)noc3C)CC2)nc1 | -7 | 6268 | 13 | -26 | 5.5 | 16 | 1
Cc1sc2ncn(CC(=O)Nc3c(F)cccc3F)c(=O)c2c1S(=O)(=O)N1CCC(C)CC1 | 1 | 4677 | -2 | 2 | 4.0 | 3 | -4
COC(=O)c1ccccc1NC(=O)CSCC(=O)Nc1ccccc1OC | 11 | 5272 | -2 | -24 | 5.7 | 3 | 8
O=C(N/N=C/c1ccc(O)cc1)c1ccc(COc2cc(Cl)ccc2Cl)o1 | -14 | 5796 | nt | -15 | nt | nt | nt
CCC1CC(CSC(=N)N)OC1=O (stereo not given) | 4 | 3224 | 7 | nt | 2.1 | 12 | -4
CN(C)S(=O)(=O)c1ccc(Cl)c(NC(=O)COC(=O)/C=C/c2ccc3ccccc3n2)c1 | nt | 2680 | 1 | -7 | 1.4 | -1 | -1
CCOC(=O)Cc1csc(NC(=O)CCN2C(=O)c3cccc([N+](=O)[O-])c3C2=O)n1 | -7 | 3674 | 5 | -18 | 1.8 | -5 | 4
O=c1[nH]c2ccc(S(=O)(=O)N3CCC(Cc4ccccc4)CC3)cc2o1 | -5 | 2565 | 10 | -3 | 9.3 | 14 | 15
CC(=NN=C(N)SCc1ccccc1)C(C)(C)C | nt | nt | 4 | nt | 8.4 | 2 | 13
COc1cc(-n2c(C)nc3cc(C(=O)NCC4CCCO4)ccc32)cc(OC)c1OC (stereo not given) | -12 | 5485 | 9 | -23 | 3.8 | 1 | -6
c1ccc(-c2nn3c(Cn4nnc5ccccc54)nnc3s2)nc1 | -8 | 5692 | 4 | -3 | 6.1 | 5 | 4
CCc1nc2scc(-c3ccc(C)cc3)c2c(=O)n1N | -4 | 2177 | 12 | -14 | 5.8 | 11 | -1
CCOc1cc(C=NNC(N)=O)cc(Br)c1OCC(=O)Nc1ccccc1C | nt | nt | -17 | nt | 17 | 7 | 15

Brought forward from above: 2 compounds, then new ones.
SMILES | BJeLR lethal | Bead autofluor | ugtP null kill | PrP 5UTR inh | RN4220 kill | Mtb hypoxia rep | Mtb hypoxia rep growth
CCc1nc2scc(-c3ccc(C)cc3)c2c(=O)n1N | -4 | 2177 | 12 | -14 | 5.8 | 11 | -1
CCOc1cc(C=NNC(N)=O)cc(Br)c1OCC(=O)Nc1ccccc1C | nt | nt | -17 | nt | 17 | 7 | 15
O=C(Nc1ccn(Cc2c(F)c(F)cc(F)c2F)n1)c1ccc(COc2ccccc2Cl)cc1 | 7 | 9130 | 3 | 18 | 4.9 | 6 | 2
CCc1ccc2oc(C(=O)Nc3nonc3C)c(C)c2c1 | 9 | 4829 | -3 | -30 | 1.5 | 4 | 7
COc1ccc(OCCN(C)CC(=O)Nc2c(C)cccc2C)cc1 | -1 | 3616 | 12 | -21 | -0.9 | 7 | 7
CN(C)S(=O)(=O)N1CCN(S(=O)(=O)c2ccc(F)cc2)CC1 | -7 | 6808 | 18 | -3 | 9.6 | 7 | 12
CC1CCC2(CC1)NC(=O)N(CC(=O)N1c3ccccc3CC1C)C2=O (stereo not given) | nt | 3572 | 3 | -15 | 1.6 | 8 | 4
CC(CC(=O)Nc1cc(Cl)ccc1C)=NNC(=O)C(=O)N1CCCC1 | nt | nt | -1 | nt | 3.1 | -2 | 1
Cc1ccc(NC(=O)c2ccn(C)n2)c(Br)c1 | -11 | 10085 | 14 | -60 | 4.9 | 15 | 10
CC(C)Sc1n[nH]c(=O)n1-c1cccc(C(F)(F)F)c1 | -2 | 3571 | 5 | -20 | 8.1 | 7 | 4
CCOC(=O)C[C@H]1c2ccc(C(F)(F)F)cc2S(=O)(=O)N1c1cccc(OC)c1 | -6 | 3548 | nt | -34 | nt | nt | nt
CC(=O)Nc1ccc(-c2nc(C)c(C(C)=O)n2O)cc1 | 6 | 9160 | 12 | -38 | 4.1 | 0 | -6
COC(=O)CCSc1cc(NCCOC(C)=O)c([N+](=O)[O-])c2nonc12 | -13 | 2374 | -1 | 3 | 6.6 | 4 | -5
COc1ccc(S(=O)(=O)N2CCCc3ccccc32)cc1[N+](=O)[O-] | 3 | 3966 | 3 | -11 | 7.6 | 4 | 0
COc1ccccc1NC(=O)COc1ccc(Br)cc1CNC1CCCC1 | 7 | 4569 | 1 | -19 | 0.1 | -12 | 3
COc1ccc(NC(=O)c2oc3ccccc3c2NC(=O)c2ccc(OC)c(OC)c2)c(OC)c1 | nt | 3590 | 6 | 9 | 2.0 | 14 | -1
C=CCN1C(=O)C(Cc2ccccc2)S/C1=N/N=C/c1cccs1 (stereo not given) | 13 | 4601 | nt | -5 | nt | nt | nt
CC(C)=CCC(C)(C)C1OCCN1C(=O)c1ccccc1 (stereo not given) | 7 | 9985 | 6 | -17 | 0.9 | 4 | -4
CCC(CC)NC(=O)CO/N=C/c1ccccc1OC(F)F | 6 | 2631 | nt | -60 | nt | nt | nt
COc1ccc2cc(C)c3nnc(SCC(=O)Nc4cc(OC)c(OC)cc4C(=O)O)n3c2c1 | 3 | 1989 | 7 | -16 | 2.1 | -1 | -6
COc1cccc(CN2CC(C(=O)NCc3cccc(N4CCCC4)c3)CCC2=O)c1 (stereo not given) | -4 | 9998 | -1 | 9 | 0.0 | -5 | 10
COc1ccc([C@@H]2[C@@H]3C(=O)N(C(C)(C)C)C(=O)[C@@H]3[C@]3(Cc4ccccc4)C(=O)N(c4ccc(C(F)(F)F)cc4)C(=O)N23)cc1 | -1 | 3495 | nt | 2 | nt | nt | nt

Arranged by length of the SMILES (ascending): part of the list above.
SMILES | BJeLR lethal | Bead autofluor | ugtP null kill | PrP 5UTR inh | RN4220 kill | Mtb hypoxia rep | Mtb hypoxia rep growth
Cc1ccc(NC(=O)c2ccn(C)n2)c(Br)c1 | -11 | 10085 | 14 | -60 | 4.9 | 15 | 10
CCC(CC)NC(=O)CO/N=C/c1ccccc1OC(F)F | 6 | 2631 | nt | -60 | nt | nt | nt
CC(C)=CCC(C)(C)C1OCCN1C(=O)c1ccccc1 (stereo not given) | 7 | 9985 | 6 | -17 | 0.9 | 4 | -4
CC(=O)Nc1ccc(-c2nc(C)c(C(C)=O)n2O)cc1 | 6 | 9160 | 12 | -38 | 4.1 | 0 | -6
CC(C)Sc1n[nH]c(=O)n1-c1cccc(C(F)(F)F)c1 | -2 | 3571 | 5 | -20 | 8.1 | 7 | 4
C=CCN1C(=O)C(Cc2ccccc2)S/C1=N/N=C/c1cccs1 (stereo not given) | 13 | 4601 | nt | -5 | nt | nt | nt
CC(CC(=O)Nc1cc(Cl)ccc1C)=NNC(=O)C(=O)N1CCCC1 | nt | nt | -1 | nt | 3.1 | -2 | 1
COc1ccc(S(=O)(=O)N2CCCc3ccccc32)cc1[N+](=O)[O-] | 3 | 3966 | 3 | -11 | 7.6 | 4 | 0
COC(=O)CCSc1cc(NCCOC(C)=O)c([N+](=O)[O-])c2nonc12 | -13 | 2374 | -1 | 3 | 6.6 | 4 | -5
COc1ccc2cc(C)c3nnc(SCC(=O)Nc4cc(OC)c(OC)cc4C(=O)O)n3c2c1 | 3 | 1989 | 7 | -16 | 2.1 | -1 | -6
COc1ccc(NC(=O)c2oc3ccccc3c2NC(=O)c2ccc(OC)c(OC)c2)c(OC)c1 | nt | 3590 | 6 | 9 | 2.0 | 14 | -1
COc1ccc([C@@H]2[C@@H]3C(=O)N(C(C)(C)C)C(=O)[C@@H]3[C@]3(Cc4ccccc4)C(=O)N(c4ccc(C(F)(F)F)cc4)C(=O)N23)cc1 | -1 | 3495 | nt | 2 | nt | nt | nt

Hits appear at their usual frequency. Share with any hit: about 4.1%.
